Compound activity: PubChem, SRMLSC
H5N1 CPE – antiviral screen in MDCK cells, H5N1 avian flu; cytopathic effect, luminescence, 72 h; stronger effect = higher value; no value below 0 was filed and about half of the inactive calls have no number; reference of the scale not given here; inhibition, % at 50 µM; 0.07% of 96,000 active; AID 740; in the data active means inhibition above about 25%
* hit, by the source's call; i = inactive. A portion of the library. The share of hits here may be higher or lower than overall.

SMILES	H5N1 CPE
CCOC(=O)C1=C(CN2CCc3ccccc32)NC(=O)NC1c1ccc(Cl)cc1 (configuration not stated)	i
O=C(Nc1cccc(F)c1)N1CC=C(n2c(=O)[nH]c3ccccc32)CC1	2.5
COc1ccc2nc(SCC(N)=O)cc(C)c2c1	0.2
Cc1cc2c(=O)n(Cc3ccco3)c(SCC(=O)N3CCCc4ccccc43)nc2s1	5.2
CCCCC1CCC(C(=O)NC2CCS(=O)(=O)C2)CC1 (configuration not stated)	0.2
CN(C)c1nc(N2CCN(c3ccc(F)cc3)CC2)c(C#N)c(=O)o1	0.5
CCOC(=O)N1CCN(C(=O)CSc2nnc(CNC(=O)c3ccccc3F)o2)CC1	i
CN(CCCNC(=O)COc1cc(=O)n(C)c2ccccc12)Cc1ccccc1	11
O=C(NN=C1C2CC3CC(C2)CC1C3)c1ccncc1	i
CCCCOC(=O)c1c(C)oc2ccc(NS(=O)(=O)c3ccc4c5c(cccc35)C(=O)N4)cc12	i
Cc1sc2ncnc(Sc3nnnn3-c3ccccc3)c2c1C	18
CCn1nnc(NC(=O)c2cc(Cl)c(OC)c(Cl)c2)n1	0.7
C=CCn1sc(=N)c(C#N)c1N	0.1
Cc1ccccc1Cn1ccc(NC(=O)c2cnn3c2NC(c2ccccc2)CC3C(F)(F)F)n1 (configuration not stated)	i
C=CCc1c(C)nc(C)nc1N/N=C/c1ccccc1	0.5
CCOC(=O)c1ccc(N2C(=O)CC(N3CCOCC3)C2=O)cc1 (configuration not stated)	0.7
COc1ccc(-c2csc(Nc3ncccc3C)n2)cc1OC	i
COc1ccc(-c2nc3n(n2)C(c2ccncc2)C(C(N)=O)=C(C)N3)cc1 (configuration not stated)	0.8
c1ccc2c3c(cc(N4CCOCC4)c2c1)OC1(N2CCOCC2)CCCCC1O3 (configuration not stated)	i
CC(=O)Nc1ccn(Cc2c(F)cccc2Cl)n1	0.5

Pulled by compound from above (2):
SMILES	H5N1 CPE
Cc1sc2ncnc(Sc3nnnn3-c3ccccc3)c2c1C	18
CC(=O)Nc1ccn(Cc2c(F)cccc2Cl)n1	0.5

Further compounds:
SMILES	H5N1 CPE
Cc1cc(/C=N/NC(=O)Cn2c3ccccc3c(=O)c3ccccc32)c(C)n1-c1ccccc1	0.3
CCOc1ccc(NC(=O)CC2NCCNC2=O)cc1 (configuration not stated)	0.8
O=C(CSc1ccccc1)N1CCc2ccccc21	i
Cc1ccc(NC(=O)c2sccc2-n2cccc2)c(C)c1	2.3
O=C(O)c1cc(-c2ccncc2)nc2ccc(S(=O)(=O)N3CCOCC3)cc12	i
Cn1c(SCc2cccc(F)c2)nnc1-c1ccccn1	i
C=CCc1cccc(CNc2nc3ccccc3n2CCN2CCOCC2)c1O	i
Cc1ccc([N+](=O)[O-])cc1N/C=C1\CCc2ccccc2C1=O	0.1
COc1ccc2c(CC(=O)N(C)CC3COc4ccccc4O3)coc2c1 (configuration not stated)	1.7
CC(=O)n1cc(/C=N/NC(=O)c2sc(C)nc2C)c2ccccc21	3.2

17 entries from above, bar-delimited:
SMILES | H5N1 CPE
Cc1ccccc1Cn1ccc(NC(=O)c2cnn3c2NC(c2ccccc2)CC3C(F)(F)F)n1 (configuration not stated) | i
C=CCc1c(C)nc(C)nc1N/N=C/c1ccccc1 | 0.5
CCOC(=O)c1ccc(N2C(=O)CC(N3CCOCC3)C2=O)cc1 (configuration not stated) | 0.7
COc1ccc(-c2csc(Nc3ncccc3C)n2)cc1OC | i
COc1ccc(-c2nc3n(n2)C(c2ccncc2)C(C(N)=O)=C(C)N3)cc1 (configuration not stated) | 0.8
c1ccc2c3c(cc(N4CCOCC4)c2c1)OC1(N2CCOCC2)CCCCC1O3 (configuration not stated) | i
CC(=O)Nc1ccn(Cc2c(F)cccc2Cl)n1 | 0.5
Cc1cc(/C=N/NC(=O)Cn2c3ccccc3c(=O)c3ccccc32)c(C)n1-c1ccccc1 | 0.3
CCOc1ccc(NC(=O)CC2NCCNC2=O)cc1 (configuration not stated) | 0.8
O=C(CSc1ccccc1)N1CCc2ccccc21 | i
Cc1ccc(NC(=O)c2sccc2-n2cccc2)c(C)c1 | 2.3
O=C(O)c1cc(-c2ccncc2)nc2ccc(S(=O)(=O)N3CCOCC3)cc12 | i
Cn1c(SCc2cccc(F)c2)nnc1-c1ccccn1 | i
C=CCc1cccc(CNc2nc3ccccc3n2CCN2CCOCC2)c1O | i
Cc1ccc([N+](=O)[O-])cc1N/C=C1\CCc2ccccc2C1=O | 0.1
COc1ccc2c(CC(=O)N(C)CC3COc4ccccc4O3)coc2c1 (configuration not stated) | 1.7
CC(=O)n1cc(/C=N/NC(=O)c2sc(C)nc2C)c2ccccc21 | 3.2

(cont.)
SMILES	H5N1 CPE
COc1cccc(NC(=O)c2nc3ncccn3n2)c1	0.2
CC(C)C[C@H](NC(=O)OC(C)(C)C)c1nnc(SCc2ccccc2)o1	0.2
COC(=O)c1cccc(C(=O)Nc2ccc(C)cc2)n1	i
COc1cc2c(cc1NC(=O)c1cc(-c3cccnc3)nc3ccc(C)cc13)oc1ccccc12	i
CCC(=O)Nc1cc2c(cc1C(=O)c1ccccc1)OCCO2	0.9
CCOC(=O)C1=C(CN2CCc3ccccc32)NC(=O)NC1c1cccc([N+](=O)[O-])c1 (configuration not stated)	i
CCC(c1nnnn1C(C)(C)C)N(CCOC)Cc1cc2cccc(C)c2n2nnnc12 (configuration not stated)	i
O=c1ccc2cc(S(=O)(=O)N3CCOCC3)ccc2o1	2.4
COc1ccccc1NC(=O)Nc1nnc(-c2ccco2)s1	i
CCCc1nn(C)c2c1C(c1cccnc1)C(C#N)=C(N)O2 (configuration not stated)	i
Cc1ccccc1NC(=O)N1CCCC(c2nc(-c3ccc(F)cc3)no2)C1 (configuration not stated)	i
O=C(O)c1ccc(S(=O)(=O)N2CCC(c3nc(-c4ccccc4Cl)no3)CC2)cc1	0.3
Cc1cccc(-c2cc(C(=O)Nc3sc(C)c(C)c3C(N)=O)c3ccccc3n2)c1	1.6
O=C(O)Cc1ccc(NC(=O)C2CCCCC2C(=O)O)cc1 (configuration not stated)	0.1
CCCOc1ccc(C(=O)C(c2ccccc2)N2CCOCC2)cc1 (configuration not stated)	0.2
Cc1sc2ncnc(N3CCCCC3)c2c1C	i
CC1(C2(O)CC(c3ccccc3)ON2)CCCCC1 (configuration not stated)	i
O=C(CCc1ccccc1)Nc1nc2n(n1)C(c1ccccc1)CC(=O)N2 (configuration not stated)	i
CCOc1ccc(C(C(=O)NC2CCCC2)N(Cc2ccccc2)C(=O)c2nsc(Cl)c2Cl)cc1 (configuration not stated)	i
COC(=O)c1cc(=O)nc2sc(-c3ccccc3)nn12	0.4
COc1ccc(C(=O)N2CCN(S(=O)(=O)c3ccc(Cl)cc3)CC2)cc1OC	1.9
N#Cc1ccc(-n2nccc2-c2cnc3n(c2=O)CCS3)cc1	1.0
CC(CCc1ccccc1)NC(=O)CN1CCN(Cc2ccc(Cl)cc2)C1=O (configuration not stated)	i
COc1ccc(C/C(N)=N/n2cnnc2)cc1Cl	i
NC(=O)c1ccc(-n2nnnc2Oc2ccccc2)cc1	i
CC1(C)CC(CCC(=O)Nc2ccc(S(N)(=O)=O)cc2)C(=O)O1 (configuration not stated)	0.2
COc1cc(CO)cc(Br)c1OCC(=O)N1CCCCC1	i
O=C(NCc1ccc(Cl)cc1)c1cnn2ccccc12	2.6
CCOc1ccccc1NC(=O)Cn1c(C)cc(COC)c(C#N)c1=O	i
Cc1nn(Cc2ccc(C(=O)N3N=C(C(F)F)CC3(O)C(F)F)cc2)c(C)c1[N+](=O)[O-] (configuration not stated)	3.8
C/C(=N/NS(=O)(=O)c1ccc(F)cc1)c1ccc(NC(=O)c2ccc(C)o2)cc1	0.7
CCN1CCN(C(C)C(=O)Nc2c(C)n(C)n(-c3ccccc3)c2=O)CC1 (configuration not stated)	i
O=C(Cn1cnc2ccccc2c1=O)NCCC(=O)Nc1ccc2c(c1)OCCO2	i
COc1ccc(C(=O)c2ccccc2)cc1Br	i
COc1ccc(OCCNc2cc(N3CCOCC3)ccc2[N+](=O)[O-])cc1	0.1
Cc1ccc(NC(=O)c2noc3c2CCCCC3)cc1C	i
O=C(O)COc1ccc(-c2nnn(CC(=O)O)n2)cc1	i
Cc1c(NC(=O)C2CC(c3c(F)cccc3Cl)=NO2)c(=O)n(-c2ccccc2)n1C (configuration not stated)	0.3
Cc1cc(NC(=O)c2ccc(NC(=O)C(C)C)cc2)no1	2.1
Cc1ccc(NC(=O)c2ccc(CN3CCc4ccccc4C3)cc2)cc1	i
O=C(NCCO)c1ccc2[nH]c3c(c2c1)CCCC3	0.9
O=C(CSCc1ccccc1)NC1CCSC1=O (configuration not stated)	0.5
CCOCCn1c(N(C)Cc2ccccc2)nc2c1c(=O)[nH]c(=O)n2C	1.0
Cc1ccccc1-n1nc2c(c1NC(=O)c1cccc(F)c1)CS(=O)C2 (configuration not stated)	1.0
C=CCNC(=O)NC(=O)COC(=O)/C(C#N)=C/c1cc(C)n(CCC(C)C)c1C	i
Cc1sc(NC(=O)c2ccco2)c(C(c2cccnc2)N2CCC(C)CC2)c1C (configuration not stated)	3.0
O=C1Nc2ccc([N+](=O)[O-])cc2C1(O)N1CCCCCC1 (configuration not stated)	0.3
CCOCCn1c(SCc2c(F)cccc2Cl)nc2c1c(=O)[nH]c(=O)n2C	i
Cc1ccc(-c2cc(C(F)F)n3ncc(C(=O)N4CCN5CCCC5C4)c3n2)cc1 (configuration not stated)	2.2
CCCOc1c(Cl)cc(C(=O)Nc2ccc3c(c2)OCO3)cc1OCC	i

(cont.)
SMILES	H5N1 CPE
COC(=O)c1cc2n(n1)CCN(Cc1ccc(F)cc1)C2=O	i
O=C(Nc1cc(S(=O)(=O)N2CCOCC2)ccc1Cl)C(=O)c1c(-c2ccccc2)cc2ccccn12	i
Cc1ccc(-c2nc3ccccc3c(=O)n2-n2cccc2)cc1	i
CCOC(=O)c1ccc(S(=O)(=O)N2CCN(CC(=O)NC(=O)NC3CCCCC3)CC2)cc1	1.1
C=CCOC(=O)C1=C(C)Nc2nnnn2C1c1cccs1 (configuration not stated)	i
CCCn1c2c(c(O)c(C(=O)NC)c1=O)CCCC2	i
COCCNC(=O)CN1CCC(NC(=O)C(C)(C)C)CC1	0.3
Cc1noc(C)c1COc1cccc(C(=O)N2CCN(C/C=C/c3ccccc3)CC2)c1	i
Cc1c(NC(=O)C23CC4CC(CC(C)(C4)C2)C3)c(=O)n(-c2ccccc2)n1C	i
CCOC(=O)c1ccc(NS(=O)(=O)c2ccc3c(c2)oc(=O)n3C)cc1	1.3
CCOC(=O)C1CCN(C(=O)Cn2cc(C(=O)C3CC3)c3ccccc32)CC1	0.5
C=CCn1c(NCc2ccccc2)nc2ccccc21	i
O=C(Cn1cc(C(=O)c2cccs2)c2ccccc21)NCC1CCCO1 (configuration not stated)	0.8
Cc1noc(C)c1CN1C(=O)NC2(CCCCCCC2)C1=O	i
O=C(CSc1nccn1-c1ccc(Cl)cc1)NCc1ccc2c(c1)OCO2	2.0
CN(C)CCOC(=O)C12CC3(C)CC(C)(CC(C)(C3)C1)C2	1.9
O=C(Nc1ccccc1Cl)N1CCn2c(nc3ccccc32)C1	0.2
O=C(CCCSc1nc2ccccc2[nH]1)NCc1ccco1	i
CSc1ccc(C2C(C#N)=C(N)Oc3c2ccc(=O)c2c(C)oc(C)c32)cc1 (configuration not stated)	i
Cc1cc(C)cc(NC(=O)C2CCCC2)c1	0.8
CC1(C)Cc2c(C#N)c(N3CCN(C(=O)c4ccco4)CC3)nc(-c3ccco3)c2CS1	0.9
CCOC(=O)c1ccc(N=Cc2nc3ccccc3n2C)cc1	i
Cc1ccc(-c2noc(CSc3nnnn3C3CCCCC3)n2)cc1	i
CCOC(=O)CCc1c(C)c(C#N)c2nc3ccccc3n2c1-n1cnc2ccccc21	1.5
O=C(NCCCN1CCCC1=O)C1CCN(S(=O)(=O)N2CCOCC2)CC1	i
Cc1ccc2c(c1)N(CC(=O)NCc1cccs1)C(=O)CO2	0.5
COC(=O)c1c(C(=O)OC)c(-c2ccc(C)cc2)n2c1CS(=O)(=O)C2	0.1
CNC(=S)NNC(=O)Cn1ccc(C)n1	i
Cc1ccc2c(c1)N=C(c1ccc(Cl)cc1)CO2	i
CCN(CC)CCNC(=O)Cc1c(C(=O)O)n(C)c2ccccc12	i
Nc1cccc(C(=O)Nc2ccccc2Cl)c1	i
Cc1nc2sc(C(c3cccc(F)c3)N3CCC(C)CC3)c(O)n2n1 (configuration not stated)	0.8
Cc1ccc2c(c1)-c1c(cnn1CC(=O)N(Cc1ccco1)C1CCCCC1)CO2	0.7
O=C(COc1ccc(F)cc1)Nc1ccc(-n2cnnn2)cc1	0.8
O=P1(NCc2ccco2)COc2ccccc2OC1	i
Cn1c(=O)c2cc(S(=O)(=O)NC(C(=O)Nc3cccnc3)c3ccccc3)ccc2n(C)c1=O (configuration not stated)	2.8
CC(=O)N(C)c1ccc(OCC(O)COc2ccc(N(C)C(C)=O)cc2)cc1	1.6
Cc1cccc(NC(=O)C2CCCN(S(=O)(=O)c3cccc4nsnc34)C2)n1 (configuration not stated)	0.4
Cn1cc(/C=C2/SC(=O)N(CC(=O)Nc3ccc4c(c3)OCO4)C2=O)c2ccccc21	0.6
COc1ccccc1OCC(=O)Sc1ccc(C)cc1	i
CCN1CCN(S(=O)(=O)c2cccs2)CC1	i
CCOc1ccccc1OCC(=O)Nc1nnc(C)s1	2.8
CCOC(=O)N1CCC(NC(=O)C2CCN(S(=O)(=O)c3cccs3)CC2)CC1	0.0
CN(c1cccc(NC(=O)CCSc2ccccc2)c1)S(C)(=O)=O	1.3
O=C1CCc2cc(S(=O)(=O)N3CCN(c4cccc(C(F)(F)F)c4)CC3)ccc2N1	i
COc1ccc(-c2cc3ccc(OCc4nn[nH]n4)cc3oc2=O)cc1OC	0.8
Cc1ccc(N(CC(=O)NCc2ccco2)C(=O)CCC(=O)Nc2ccccn2)cc1C	i
Cc1[nH]nc2c1C(c1ccc(-c3ccccc3C#N)o1)C(C#N)=C(N)O2 (configuration not stated)	2.3
CCOCCn1c(CN2CCN(c3cccc(Cl)c3)CC2)nc2c1c(=O)n(C)c(=O)n2C	2.1
CCOC(=O)N1CCC(NC(=O)c2ccc3c(c2)sc2nc(-c4cccc(OC)c4)cn23)CC1	i
